Vaccinia mCherry: qHTS for Stage-Specific Inhibitors of Vaccinia Orthopoxvirus: mCherry Reporter Primary qHTS; 310,000 compounds, 0.63% hits; Potency, µM (top dose mostly 36.5 µM), for inactives: at the top dose activity change, negative = inhibition, actives largely listed as inhibitors; Vaccinia virus mCherry reporter infection, fluorescence; about a quarter of the inactives have no number; active = well fitted inhibition curve with a large enough effect; inconclusive = small, poorly fitted or top-dose-only effect; inactive = no such curve, though single readings can be large or run the other way; tested in A549 cells; note: nearly all actives have a fitted effect of over 35% in size; inactives centre near -10
Vaccinia Venus: qHTS for Stage-Specific Inhibitors of Vaccinia Orthopoxvirus: Venus Reporter Primary qHTS; Vaccinia virus Venus reporter expression, fluorescence; Potency, µM (series often up to 36.5 µM), for inactives: top-dose activity change, negative = inhibition, most hits filed as inhibitors; 330,000 compounds, 0.46% hits; AID 720580, 2013; active means well fitted inhibition curve with a large enough effect; inconclusive means small, poorly fitted or top-dose-only effect; inactive means no such curve, though single readings can be large or run the other way; tested in A549 cells; note: nearly all actives have a fitted effect of over 30% in size; inactives centre near -10
Active calls of the source: *; i = inactive; ? = inconclusive; . = not tested or not shown; & = joins results of further samples; [ ] = another dose, or the depositor's remark. % is set by controls: 0 for no effect and ±100 for the full control effect; potency is the fitted concentration of half-maximal effect.

SMILES | Vaccinia mCherry | Vaccinia Venus
COc1ccc(S(=O)(=O)N2CCN(C(=O)c3ccc(=O)[nH]n3)CC2)cc1OC | -12.6% | 4.9%
CC(=O)Oc1ccc(N2C(=O)C3C4C=CC(CO)(O4)C3C2=O)cc1 (stereo not drawn) | . | -11.6%
CCCCNC(=O)c1nc(C2CCNCC2)oc1-c1cccc(C(F)(F)F)c1 | -29.5% | -13.2%
O=C(O)CC(CC(=O)O)n1cccc1 | i | -2.2%
Nc1ccc(C(=O)N2CCN(S(=O)(=O)c3ccc(Br)cc3)CC2)cc1[N+](=O)[O-] | -24.3% | -28.5%
C[C@@H]1CN([C@H](C)CO)S(=O)(=O)c2ccc(C#CCN(C)C)cc2O[C@@H]1CN(C)Cc1ccccc1F | -13.3% | -6.6%
Cc1csc(SCC(=O)Nc2ncc(Cl)c(C)c2Cl)n1 | i | -15.6%
CC1=C(C(=O)N(C(C)C)C(C)C)CC(CC(=O)NCCCN(C)C)C(=O)N1Cc1ccc(F)cc1 (stereo not drawn) | i | -1.6%
O=[N+]([O-])c1ccc(Cl)cc1CNc1ccc(F)c(F)c1 | -12.6% | -6.1%
COc1ccccc1NC(=O)c1cc(C(=O)O)ccc1C(=O)O | -18.5% | -5.2%
COc1ccc(N2CCN(C(=O)C3CCN(c4nc5ccc(C)cc5[nH]4)CC3)CC2)cc1 | -20.3% | -16.1%
Cc1snc2sc(C(=O)c3ccc(F)cc3)c(N)c12 | i | 0.7%
Cc1cccc(-c2nn(-c3ccccc3)cc2C(=O)N(C)CC(=O)Nc2ccc(N3CCOCC3)cc2)c1 | -9.9% | -0.1%
COc1ccc(Cl)cc1NS(=O)(=O)c1ccc(S(=O)(=O)N2CCCC2)cc1 | -13.7% | -6.6%
CC1=CC(C)(C)N2C(=O)C(=O)c3cc(OC(=O)c4ccco4)cc1c32 | -16.3% | 1.9%
CCN1CCN(CCCNC(=O)c2ccc(CS(=O)c3ccc(Br)cc3)o2)CC1 (stereo not drawn) | -9.1%[7.34 µM] | 6.8%[7.34 µM]
Cn1c(=O)c2c(nc(CN3CCN(Cc4ccccc4)CC3)n2Cc2ccc(Cl)cc2)n(C)c1=O | i | ?
COc1ccc(NC(=O)CC2Sc3ncnn3C2=O)cc1 (stereo not drawn) | -5.7% | -0.8%
CSc1ncc(C(=O)NCc2ccc(C)cc2)c(C)n1 | -0.4% | 0.1%
O=C(Nc1ccccc1)N(Cc1ccc2c(c1)OCO2)C1CCN(Cc2ccccc2)CC1 | i | 0.3%
Cc1cc(C)cc(NS(=O)(=O)c2cccs2)c1 | 2.1% | -0.1%
O=C(c1ccc(N2CCCCC2)c([N+](=O)[O-])c1)N1CCN(S(=O)(=O)c2ccccc2)CC1 | -17.2% | -3.0%
COc1ccc(/C=C/C(=O)NCc2ccccn2)cc1OC | -20.9% | -9.2%
Clc1ccc(CNCCCSc2ncccn2)cc1Cl | -22.1% | -7.8%
O=C(c1ccccc1Br)N1CCC(c2nc3ccccc3o2)CC1 | -7.4% | -15.3%
O=S(=O)(NCCNC/C=C/c1ccc(Br)cc1)c1cccc2cnccc12 | -12.9%&-28.0% | ?
COc1ccc(Cl)cc1NC(=O)COc1ccc(S(=O)(=O)N2CCOCC2)cc1C | -0.6% | 5.2%
CCCCNC(=O)C1(C)CCN1Cc1cccc2c(OC)cc(C(=O)OCC)cc12 (stereo not drawn) | 0.3% | 4.7%
CN(C(=O)c1ccccc1OC1CCN(S(C)(=O)=O)CC1)C1CCOC1 (stereo not drawn) | i | -10.8%
Cc1onc(-c2ccccc2)c1C(=O)NC(=S)NNC(=O)c1ccncc1 | -13.5% | -15.7%
O=S(=O)(NCCNCC=Cc1ccc(Br)cc1)c1cccc2cnccc12 | -11.3% | ?
Cc1ccc(/C(N)=N/OC(=O)COc2ccccc2Cl)cc1 | -2.1% | 2.4%
Cc1nn(-c2ccccc2)c(N)c1N=Nc1cccc(S(=O)(=O)N2CCOCC2)c1 | -22.3% | -21.4%
CC(=O)Nc1ccc(/C(C)=N/NS(=O)(=O)c2ccccc2)cc1 | -10.2% | -2.3%
CN1CCN(C(=O)CSc2ccc(Cl)cc2)CC1 | -2.1% | 6.2%
COc1cccc(/C(C)=N/NS(=O)(=O)c2ccc(Cl)cc2)c1 | i | -5.4%
O=c1cc(N2CCCCC2)c(-c2ccccc2)n[nH]1 | 8.8% | 4.6%
COc1cccc(C(=O)Nc2ccc(NC(=O)C3CC=CCC3C(=O)O)cc2)c1 (stereo not drawn) | -14.8% | -3.7%
CC(C)c1ccc(S(=O)(=O)c2cnc(=S)[nH]c2N)cc1 | -8.8% | -13.3%
CC(Sc1nc(N)c2c3c(sc2n1)CSC(C)(C)C3)C(=O)Nc1ccccc1 (stereo not drawn) | ? | ?
O=C(NCCc1ccccc1)C1(S(=O)(=O)c2ccc(Cl)cc2)CC1 | -4.4% | -7.8%
COc1ccc(C(=O)C(O)C(c2ccc(C)cc2)N2CCOCC2)cc1OC (stereo not drawn) | 11.9% | 12.7%
O=C1CC(N2CCCc3ccccc32)C(=O)N1c1ccccc1Cl (stereo not drawn) | . | -25.5%
CCOc1ccccc1-c1nc(-c2cc3ccccc3nc2OC)no1 | . | -22.5%
Cc1cc(C)nc(S[C@H]2C[C@@H](C(=O)N3CCN(c4ccccc4F)CC3)N(Cc3ccccc3C(F)(F)F)C2)n1 | -1.3% | -3.6%
C=CCOc1cccc(CNCCCN2CCOCC2)c1 | i | -6.8%
O=C(COC(=O)c1ccccc1C(=O)c1ccccc1)NCCc1ccc(Cl)cc1Cl | ? | ?
CCCc1c(C(=O)N/N=C/C2CC=CCC2)nnn1-c1nonc1N (stereo not drawn) | -9.3% | -10.8%
N#Cc1ccc(-c2nc3ccccc3nc2-c2ccccc2)cc1C#N | -14.3% | -2.3%
CC1CCCCN1c1nnc(NC(=O)Cn2c(=O)oc3ccccc32)s1 (stereo not drawn) | i | -4.8%
COc1ccccc1C(=O)c1c(N)c(-c2nc(-c3ccccc3)cs2)c2ccccn12 | -15.7% | -6.0%
O=C(CCN1C(=O)c2ccccc2S1(=O)=O)Nc1ccccc1O | i | -5.2%
O=C(COc1ccc(F)cc1Cl)Nc1cccc(S(=O)(=O)N2CCCCCC2)c1 | i | -19.7%
COc1ccc(C(=O)Nc2ccc(C3(C#N)CCCC3)cc2)cc1 | -16.0% | -8.3%
Cc1cccc(-n2cc(-c3ccccc3)nc2SCC(=O)Nc2ccccc2Cl)c1 | -15.6% | -15.9%
Cc1cnc(C(=O)Nc2cccc(-c3nnc4n3CCCCC4)c2)cn1 | -12.1% | -6.2%
Clc1ccc(-c2nc3ccc(Cl)cn3c2Cc2cccc(Cl)c2)cc1 | 43.6%[activator] | 3.2%
CCS(=O)(=O)N1Cc2cc(C(=O)N(C)C)nc(-c3cccc(-c4ccc(F)cc4)c3)c2[C@H]1CCO | ? | -6.2%
COc1ccc(NC(=O)CN2CC(c3ccccc3)CC2=O)cc1OC (stereo not drawn) | -5.2% | 4.9%
Cc1ccc(S(=O)(=O)N2CCN(c3ccnc(-c4cccs4)n3)CC2)cc1 | i | -23.7%

5 records drawn at random from the list so far, as already listed:
SMILES | Vaccinia mCherry | Vaccinia Venus
Clc1ccc(-c2nc3ccc(Cl)cn3c2Cc2cccc(Cl)c2)cc1 | 43.6%[activator] | 3.2%
CCCCNC(=O)C1(C)CCN1Cc1cccc2c(OC)cc(C(=O)OCC)cc12 (stereo not drawn) | 0.3% | 4.7%
CC1=C(C(=O)N(C(C)C)C(C)C)CC(CC(=O)NCCCN(C)C)C(=O)N1Cc1ccc(F)cc1 (stereo not drawn) | i | -1.6%
Cc1onc(-c2ccccc2)c1C(=O)NC(=S)NNC(=O)c1ccncc1 | -13.5% | -15.7%
O=S(=O)(NCCNC/C=C/c1ccc(Br)cc1)c1cccc2cnccc12 | -12.9%&-28.0% | ?

The results go on.
SMILES | Vaccinia mCherry | Vaccinia Venus
Cc1c(Cl)ccc2c(C(=O)Nc3cc(C(C)(C)C)on3)cc(-c3ccccn3)nc12 | i | 4.7%
C=CCOc1c(Cl)cc(Cl)cc1S(=O)(=O)NCCO | -25.6% | -18.7%
OC1CCCCC1 | i | -6.6%
CS(=O)(=O)c1ccc2sc(NC(=O)c3cc4ccccc4o3)nc2c1 | -12.0% | -10.6%
Cc1ccc(S(=O)(=O)N2CCCCC2)cc1NC(=O)COC(=O)Cc1cccc(C(F)(F)F)c1 | -11.5% | -9.7%
COc1ccc(NC(=S)NNC(=O)C2CC2c2ccc(C)cc2)cc1 (stereo not drawn) | -14.8% | -10.5%
C=CCn1c(Sc2nncn2C)nc2c1c(=O)[nH]c(=O)n2C | -6.6% | -3.6%
O=C(CN1CSCC1=O)N1CCN(S(=O)(=O)c2cc(C(F)(F)F)ccc2Cl)CC1 | -22.9% | -13.9%
C=CCSc1nnc(C2CCCN(Cc3ccccc3O)C2)n1C (stereo not drawn) | i | -18.0%
COc1ccccc1N1CCN(CCCNc2c(C)c(=O)n(C)c(=O)n2C)CC1 | i | -6.8%&-16.9%
CC(=O)Nc1ccc(Nc2nc(-c3sc(C)nc3C)cs2)cc1 | -13.0% | -12.6%
O=C(Nc1ccc(C(=O)OCc2cc(=O)n3c4c(sc3n2)CCCC4)cc1)c1ccc(F)cc1 | -19.9% | -15.3%
COc1cc(/C=N/Nc2nc3ccccc3s2)ccc1OC(=O)c1ccccc1F | ? | -21.5%
O=C(Nc1ccc(Br)cc1)C1OCCc2ccccc21 (stereo not drawn) | -5.1% | 0.4%
CC1CCc2c(sc3nnn(CC(=O)Nc4cccc(C(F)(F)F)c4)c(=O)c23)C1 (stereo not drawn) | -11.2% | -4.0%
NC(=O)C1CCN(C(=O)C2CCC(=O)N(CC3CCCCC3)C2)CC1 (stereo not drawn) | i | -6.1%
CC(C)CNC(=O)c1ccc(NC(=O)c2cccs2)cc1 | 6.8% | -14.3%
COc1ccc(COCC(O)CN2CCc3ccccc3C2)cc1OC (stereo not drawn) | -15.3% | -2.7%
COc1ccc(C(C(=O)NCC2CCCO2)N(Cc2ccc(F)cc2)C(=O)CNC(=O)c2ccco2)cc1OC (stereo not drawn) | i | -4.3%
O=C(NC1CCCCCC1)C1CC(=O)N(c2ccc(Cl)cc2)C1 (stereo not drawn) | -1.0% | 4.0%
CCCc1cc(C(=O)Nc2sc(C)c(C)c2C(=O)OCC)no1 | 3.8% | -1.1%
Cc1ccc(Cl)c2sc(NC(=O)c3ccc(S(=O)(=O)N4CCCC4)cc3)nc12 | ? | ?
O=C(NCCN1CCOCC1)c1cc(S(=O)(=O)NCCCN2CCCC2=O)ccc1Cl | -5.3% | -1.7%
COc1ccc([C@H]2C[C@H](O)C[C@@H](CCn3cc(-c4ccccc4)nn3)O2)cc1 | 0.3% | -4.0%
CCn1cc(C(=O)Nc2cccc(C(=O)OC)c2)c(=O)c2ccc(C)nc21 | ? | -2.6%
COc1ccc(CCN(C)C(=O)COc2ccc(C(=O)c3ccccc3)cc2)cc1OC | -2.0% | -13.2%
COc1cccc(C(=O)COC(=O)c2n[nH]c(=O)c3ccccc23)c1 | -1.2% | -5.3%
COc1cnn(-c2ccccc2)c(=O)c1SCc1ccc(Cl)cc1Cl | -20.9% | -9.9%
CCOc1cc(C(C(=O)NCC2CCCO2)N(C(=O)Cn2nnc3ccccc32)c2ccc(OC)c(OC)c2)ccc1O (stereo not drawn) | -3.0% | 0.9%
CCc1nc(SCc2ccccn2)[nH]c(=O)c1C | -8.1% | -5.5%
Cc1cc(C)cc(-n2ccnc(NCCc3ccccc3)c2=O)c1 | -0.5% | -12.5%
COc1cccc(N2CCN(C(c3ccccn3)c3nnnn3C(C)(C)C)CC2)c1 (stereo not drawn) | . | -14.2%
Cc1nn(C(C)(C)C)c(C)c1/C=N/OC(=O)Nc1ccc(Cl)cc1 | -4.4% | 5.3%
O=C(c1cc(-c2cccs2)nc2ccccc12)N1CCN(c2ccccc2O)CC1 | -23.2% | -18.7%
COc1cccc(-c2cn3nc(C)c(C)nc3n2)c1 | -0.6% | -15.4%
CCN(c1ccccc1)S(=O)(=O)c1ccc(F)cc1C | -10.8% | -9.5%

One compound at a time (already shown).
Entry for CCn1cc(C(=O)Nc2cccc(C(=O)OC)c2)c(=O)c2ccc(C)nc21 : Vaccinia mCherry: ?; Vaccinia Venus: -2.6%
Entry for O=C(c1cc(-c2cccs2)nc2ccccc12)N1CCN(c2ccccc2O)CC1 : Vaccinia mCherry: -23.2%; Vaccinia Venus: -18.7%

Carrying on.
SMILES | Vaccinia mCherry | Vaccinia Venus
CC(C)NC(=O)c1onc(CSc2ccncc2)c1C(=O)NC(C)C | -1.0% | -6.8%
O=C(CS(=O)(=O)c1ccccc1)Nc1nnc(C(F)(F)F)s1 | 10.8% | 0.1%
CC1(C)CC(=O)/C(=C(\O)c2ccccc2)C(=NCCc2ccccc2)C1 | -11.0% | -5.4%
C=CCNC(=O)/C=C/c1ccc(C(C)C)cc1 | -11.0% | -9.4%
CCOC(=O)CC1C(=O)NCCN1C(=O)c1cc2c(=O)n3cccc(C)c3nc2s1 (stereo not drawn) | i | -11.9%
COc1ccc(NC(=O)CSc2c(C)nn(-c3nnc(C)c(=O)[nH]3)c2C)cc1 | -10.0% | -3.8%
CC(=O)NCCC(=O)Nc1ncc(S(=O)(=O)c2ccc([N+](=O)[O-])cc2)s1 | ? | -29.0%
COc1cc(C)nc(N2CCCC(C(=O)Nc3cc(Cl)ccc3OC)C2)n1 (stereo not drawn) | . | -28.5%

Source: PubChem BioAssay (National Center for Advancing Translational Sciences (NCATS))
